Bioassay records as filed in PubChem.
Mtb H37Rv: Mycobacterium tuberculosis H37Rv growth inhibition, cell based, confirmatory dose response (AID 1949) | most inactive calls were filed without a number and no value below 0 was filed | one-dose inhibition, % at 10 µg/mL; IC50 in µg/mL for titrated hits | actives 1.6% (n = 100,000);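 active = confirmed in a dose series; inconclusive = about 50% or more but not retested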;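 also: bacteria grown 7 days with compound before Alamar blue readout; 0% = untreated bacteria and 100% = reference antibiotic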
Starred values were filed as active, the others as inactive; i = inactive; ? = inconclusive. A portion of the library; the hit share may differ from the screen's.

SMILES | Mtb H37Rv
O=S(=O)(NCCOc1ccccc1)c1ccc2ccccc2c1 | 1%
c1ccc(CNc2ccccn2)cc1 | i
CN(C)c1nc2ccc(OCCN3CCOCC3)cc2s1 | i
c1ccc(-c2nc3sc4c(c3c3nncn23)CCCC4)cc1 | 0%
COc1ccccc1CNCCc1ccc(Cl)cc1 | 4%
Cc1ccc(NC(=O)c2cc(NC(=O)c3ccco3)ccc2N2CCOCC2)cc1 | i
CCc1ccccc1N1CCN(S(=O)(=O)c2ccc(OC)c3ccccc23)CC1 | i
COc1ccc(C(=O)COC(=O)CCCC(=O)Nc2cccc(C(F)(F)F)c2)cc1 | i
CCC(=O)Oc1cc2c(C(=O)OC)c(C)oc2cc1Br | 9%
O=C(O)c1ccc(CSc2ncnc3sc4c(c23)CCCC4)cc1 | i
C=CCNC(=O)c1cnn2c(C(F)F)cc(-c3ccc(OC)cc3)nc12 | 3%
COC(=O)COc1ccc(NC(=O)C(c2ccccc2)c2ccccc2)cc1 | i
CCCc1cc(=O)oc2cc(OC(C)c3ccccc3)c(Cl)cc12 (stereo not drawn) | i
O=c1c2ccccc2[nH]c(=S)n1CCc1ccccc1Cl | i
CCCCNC(=S)N(C)Cc1c(C)nn(C)c1C | i
N#Cc1cnn(-c2ccccc2)c1/N=C/N1CCCC1 | i
CCc1ccc(NC(=O)C2CC2(c2ccccc2)c2ccccc2)cc1 (stereo not drawn) | 1%
COc1ccc(NCC(O)Cn2ccc3ccccc32)cc1 (stereo not drawn) | 23%
O=C(c1ccc(CSc2ccccc2)cc1)N1CCOCC1 | i
Cc1cc(OCCN2CCNCC2)cc(C)c1Cl | i
COc1ccccc1N1CCN(C(=O)COc2ccc(C(C)C)cc2Br)CC1 | 2%
CCOC(=O)c1c(NC(=O)c2ccc(Br)o2)sc(C(=O)OC(C)(C)C)c1C | i
COc1ccc(-c2coc3cc4oc(=O)c5c(c4cc23)CCC5)cc1 | i
CCCCOc1ccccc1C1CC(=O)Nc2cc(OC)c(OC)cc21 (stereo not drawn) | i
CC(C)NC(=O)c1ccccc1NC(=O)CCSc1ccc(Cl)cc1 | i
O=c1ccnc(SCc2ccccc2Cl)[nH]1 | i
O=C(NC(=S)Nc1ccc(-c2nc3ccccc3s2)c(O)c1)c1ccco1 | i
CCN1CCN(C(=O)c2ccc(N(C)S(C)(=O)=O)cc2)CC1 | i
CCCOc1ccc(-c2nc(C#N)c(NCC3CCCO3)o2)cc1 (stereo not drawn) | 41%
O=S(=O)(NCc1ccc2c(c1)OCO2)c1ccc2c(c1)oc1ccccc12 | i
Cc1cc(SC#N)ccc1NS(=O)(=O)c1ccccc1 | i
Cc1sc2nc3c4ccccc4c(NCc4ccccn4)nn3c(=O)c2c1C | i
N#CCn1cnc2scc(-c3ccc(F)cc3)c2c1=O | i
CC(=O)Nc1ccc(C(=O)NCc2ccccn2)cc1 | i
COc1cc(C)c(Cl)cc1S(=O)(=O)NC1CCCCC1 | i
O=C(NCc1ccc(Cl)cc1)c1ccc(C(=O)NCc2ccc(Cl)cc2)nc1 | i
Cc1cccc(NC(=O)c2cc(-c3ccc(C)s3)nc3ccccc23)n1 | 21%
CCc1ccc(OCC(=O)NC(C)(C)C)c(Br)c1 | i
CN(C)c1ccc(C(=O)NC2CC(C)(C)NC(C)(C)C2)cc1 | i
C=CCn1c(COc2cccc(Cl)c2)n[nH]c1=S | i
COc1cccc(C(=O)N2CCN(C(=O)c3cccc4ccccc34)CC2)c1OC | i
Cc1nc2ccc(NC(=O)N3CCN(c4ccccn4)CC3)cc2s1 | 3%
NC(=O)C1CCN(C(=O)CN2CCN(Cc3ccccc3)CC2)CC1 | i
O=C1NC(=O)C(CCc2ccncc2)(Cc2ccc(F)cc2)C(=O)N1c1ccc(Br)cc1 (stereo not drawn) | i
CCN(CC)c1ccc(NC(=O)c2cc3ccccc3o2)c(C)c1 | i
COc1ccc(-c2c(-c3ccc(OCc4cnn(-c5ccccc5)c4)c(C)c3O)n[nH]c2C)cc1 | 6%
CCC1(C)CC(CC#N)(c2ccc(OC)cc2)CCO1 (stereo not drawn) | i
CCn1c(=S)[nH]c2sc3c(c2c1=O)CCCC3 | 46%
CCCOc1ccc(N2CC(C(=O)Nc3ccc4c(c3)OCO4)CC2=O)cc1 (stereo not drawn) | i
O=C1C2CC=CCC2C(=O)N1c1cccc(C(F)(F)F)c1 (stereo not drawn) | i
C=C(C)CSc1nc2ccc(I)cc2c(=O)n1-c1ccccc1C | i
O=C(CSc1nnc2scc(-c3ccc(Cl)cc3)n12)NCC1CCCO1 (stereo not drawn) | i
COc1ccc(C(=O)NC(=S)Nc2cc(-c3nc4ccccc4s3)ccc2Cl)cc1 | i
CC(Sc1ccc(Br)c2cccc(C(=O)O)c12)C(=O)O (stereo not drawn) | i
O=C1CCCN1c1ccc(CNS(=O)(=O)c2ccc(F)cc2)cc1 | i
CCOc1ccc(N2C(=O)N(c3ccccc3C)C3CS(=O)(=O)CC32)cc1 (stereo not drawn) | i
C=CCNC(=O)c1ccccc1NC(=O)CSCc1cccc(Cl)c1 | i
Nc1nnc(SCCN2C(=O)c3ccccc3S2(=O)=O)s1 | 0%
Fc1ccc(OCCOCCN2CCNCC2)cc1 | i
CSc1ccccc1NC(=O)CN(c1cc(C(F)(F)F)ccc1Cl)S(C)(=O)=O | 1%

Continued:
SMILES | Mtb H37Rv
COc1cccc(C(C)NC(=O)c2cnccn2)c1 (stereo not drawn) | i
CCOc1ccccc1N1CCN(C(=O)c2cc3ccccc3oc2=O)CC1 | i
S=C(Nc1ccc2c(c1)OCO2)N1CCN(C/C=C/c2ccccc2)CC1 | i
O=C(Nc1ccc(F)cc1F)N1CCN(Cc2ccco2)CC1 | i
CCN(CC)CCSc1nc(O)c(C2CCCCC2)c(=O)[nH]1 | i
COc1ccc(-n2c(SCC(=O)NCc3ccccc3)nnc2-c2ccccc2)cc1 | i
Cc1ccc(S(=O)(=O)N(CC(=O)Nc2ccc(F)cc2F)Cc2ccc(F)cc2)cc1 | i
CCOC(=O)c1c(NC(=O)c2cccs2)sc(C)c1CC | i
CC1CCc2c(sc3ncnc(SCC(=O)N4CCOCC4)c23)C1 (stereo not drawn) | i
COc1ccc(-c2csc(NC(=O)C3C4CCC(C4)C3C(=O)O)n2)cc1 (stereo not drawn) | i
Cc1nnc(SCc2ccc3c(c2)OCO3)s1 | 3%
CCc1cccc(C)c1NC(=O)c1ccc(OC)cc1 | 17%
Cc1occc1C(=O)NC(C)C1CCCO1 (stereo not drawn) | i
CCNC(=S)N1CCN(C(=O)OCC)CC1 | i
Cc1ccc(C(=O)C(OC(=O)c2cccnc2)c2ccccc2)cc1C (stereo not drawn) | i
COc1ccccc1NC(=O)COc1ccc(Cl)cc1C=O | 2%
CCCOc1ccc(-c2n[nH]c(=S)n2-c2ccccc2OC)cc1 | i
CN(C(=O)COc1ccc(Br)cc1)C1CCS(=O)(=O)C1 (stereo not drawn) | i
CCOc1ccc(NC(=O)COc2cccc(Cl)c2)cc1 | 46%
O=C(O)Cn1c2ccccc2c2n[nH]c(=S)nc21 | i
CC(=O)c1ccc(NC(=S)NCc2cccnc2)cc1 | i
COc1ccc(C(=S)N2CCNCC2)cc1 | i
Cc1ccc(N/C(=N/S(=O)(=O)c2cccs2)c2ccccc2)cc1F | i
Cc1ccccc1C(=O)Oc1ccc2c(=O)c(-c3ccccc3)coc2c1 | i
Cc1ccc(S(=O)(=O)N(C)c2cc(S(N)(=O)=O)c(C)cc2C)cc1 | i
C=CCNC(=O)c1ccccc1NC(=O)c1ccccc1 | i
Cc1[nH]nc2c1C1(CCC(c3ccccc3)CC1)C(C#N)=C(N)O2 (stereo not drawn) | i
O=C(O)c1ccc2c(c1)C(=O)N(Cc1ccccc1)C2=O | i
CC1CCN(S(=O)(=O)c2ccc(NC(=O)c3ccc(F)cc3)cc2)CC1 | i
CSc1nc(NNC(=S)NC(=O)c2ccccc2)c2c3c(sc2n1)COC(C)(C)C3 | 3%
CCCN1CCN(C(=O)Nc2ccc(C(=O)OCC)cc2)CC1 | i
CCn1c2ccccc2n2c(SCC(=O)O)nnc12 | i
Cc1nc2cc(NC(=O)N3c4ccccc4CC3C)ccc2o1 (stereo not drawn) | 4%
CC(C)NC(=S)NC(=O)c1cccs1 | i
COc1cc(-n2nnnc2SC)c(OC)cc1Cl | i
O=C(CSCc1ccc(Br)cc1)Nc1ccc2c(c1)OCCO2 | i
CC(C)Cn1cnc2c(=O)oc3ccccc3c21 | i
NC(=O)c1ccccc1NC(=O)c1ccc(CN2CCOCC2)cc1 | i
CCOC(=O)C1CCN(S(=O)(=O)c2ccc(C)c(C)c2C)CC1 | i
Cc1ccc(OCCSc2ncccn2)c(C)c1 | i
CN(CCc1ccccn1)C(=O)c1cc2n(n1)C(C(F)(F)F)CC(c1ccc(Cl)cc1)N2 (stereo not drawn) | i
O=c1[nH]c(SCc2n[nH]c(=S)n2-c2ccccc2)nc2ccccc12 | i
Cc1c(C(=O)O)oc2c1C(O)CC(C)(C)C2 (stereo not drawn) | 1%
COc1ccc(-c2nnc(SCC(=O)Nc3ccc4c(c3)OCCO4)n2-c2ccc(Cl)cc2)cc1 | i
O=C(Oc1ccccc1)c1ccc(COC(=O)c2ccco2)cc1 | 2.7µg/mL*

Reprinted from the part before: two compounds, followed by the next part.
SMILES | Mtb H37Rv
COc1ccc(-c2nnc(SCC(=O)Nc3ccc4c(c3)OCCO4)n2-c2ccc(Cl)cc2)cc1 | i
O=C(Oc1ccccc1)c1ccc(COC(=O)c2ccco2)cc1 | 2.7µg/mL*
COc1cc(C)c(C(C)C)cc1S(=O)(=O)N1CCc2ccccc2C1 | i
Cc1csc(NC(=O)CSc2nnc(CN3CCOCC3)n2-c2ccccc2)n1 | i
O=C(Nc1ccc(Cl)cn1)C1CCCN1S(=O)(=O)c1cccc2ccccc12 (stereo not drawn) | 4%
COc1cc(NC(=S)Nc2cccc(Cl)c2Cl)c(OC)cc1Cl | i
Cc1ccc(C(=O)CSc2nc(C)nc3sc4c(c23)CCCC4)cc1 | ?
COc1cc(OC)cc(C(=O)NC(=S)Nc2ccc(N3CCCC3)cc2)c1 | i
O=C(NCC1CCCO1)c1cc2ccccc2[nH]1 (stereo not drawn) | i
COc1ccc(NC(=O)C2CC(=O)N(c3ccc(Oc4ccccc4)cc3)C2)cc1 (stereo not drawn) | i
O=C(CCSc1ccc(Cl)cc1)NC1CCCCCC1 | i
COc1ccccc1-c1c(C)oc2cc(OC(=O)c3ccc(Cl)cc3)ccc2c1=O | 5%
O=[N+]([O-])c1ccc(N2CCN(S(=O)(=O)c3ccc4ccccc4c3)CC2)cc1NCc1ccco1 | i
COC(=O)c1c(NC(=S)NC(C)c2ccncc2)sc2c1CCC(C)C2 (stereo not drawn) | i
COc1cc(C)c(NC(=O)C(c2ccccc2)c2ccccc2)cc1C(C)C | i
CC1C(O)CCN(C)C1c1ccccc1 (stereo not drawn) | 4%
CCOC(=O)C(CO)NC(=O)c1cncc(Br)c1 (stereo not drawn) | i
Cc1ccc(NC(=O)c2ccc(NC(=O)COc3ccccc3)cc2)cc1Cl | i
COc1ccc(CCNC(=O)C(=O)NC2CC2)cc1 | i
COc1ccc(S(=O)(=O)N2CCCCC2C(=O)O)cc1 (stereo not drawn) | i
CCOC(=O)c1cc(-c2ccccc2)sc1NC(=O)Cc1ccccc1 | i
CC(=O)NC1=NC(=O)/C(=C/c2ccc(-c3ccc(Cl)cc3Cl)o2)S1 | i
CCc1nc2ccccc2n1CCOc1ccccc1 | 15%
COc1ccc(NC(=S)Nc2cccc(S(=O)(=O)N3CCOCC3)c2)cc1OC | i
Oc1ccc(Cl)cc1C1=NNC(c2ccccc2Cl)C1 (stereo not drawn) | 0.65µg/mL*
CC1CCN(C(=O)C23CCC(C)(C(=O)O2)C3(C)C)CC1 (stereo not drawn) | i
Cc1ccc(NC(=O)C2CC(=O)N(c3ccc4c5c(cccc35)CC4)C2)cc1 (stereo not drawn) | i
CC1(C)Cc2nc3n[nH]c(N)c3cc2CO1 | 2%
O=C(c1ccccc1)C(Nc1ccccn1)c1ccccc1 (stereo not drawn) | i
O=C(Oc1ccccc1)c1ccc(COC(=O)c2cnccn2)cc1 | 45%
COc1ccccc1N1CCN(CC(=O)NC2CC3CCC2C3)CC1 (stereo not drawn) | i
Brc1ccc(-c2nn3c(-c4ccccc4)nnc3s2)cc1 | i

Compounds from the list above containing an aryl thioether with sulfur outside any ring:
SMILES | Mtb H37Rv
O=C(O)c1ccc(CSc2ncnc3sc4c(c23)CCCC4)cc1 | i
O=C(c1ccc(CSc2ccccc2)cc1)N1CCOCC1 | i
CC(C)NC(=O)c1ccccc1NC(=O)CCSc1ccc(Cl)cc1 | i
O=c1ccnc(SCc2ccccc2Cl)[nH]1 | i
C=C(C)CSc1nc2ccc(I)cc2c(=O)n1-c1ccccc1C | i
O=C(CSc1nnc2scc(-c3ccc(Cl)cc3)n12)NCC1CCCO1 (stereo not drawn) | i
CC(Sc1ccc(Br)c2cccc(C(=O)O)c12)C(=O)O (stereo not drawn) | i
Nc1nnc(SCCN2C(=O)c3ccccc3S2(=O)=O)s1 | 0%
CSc1ccccc1NC(=O)CN(c1cc(C(F)(F)F)ccc1Cl)S(C)(=O)=O | 1%
CCN(CC)CCSc1nc(O)c(C2CCCCC2)c(=O)[nH]1 | i
COc1ccc(-n2c(SCC(=O)NCc3ccccc3)nnc2-c2ccccc2)cc1 | i
CC1CCc2c(sc3ncnc(SCC(=O)N4CCOCC4)c23)C1 (stereo not drawn) | i
Cc1nnc(SCc2ccc3c(c2)OCO3)s1 | 3%
CSc1nc(NNC(=S)NC(=O)c2ccccc2)c2c3c(sc2n1)COC(C)(C)C3 | 3%
CCn1c2ccccc2n2c(SCC(=O)O)nnc12 | i
COc1cc(-n2nnnc2SC)c(OC)cc1Cl | i
Cc1ccc(OCCSc2ncccn2)c(C)c1 | i
O=c1[nH]c(SCc2n[nH]c(=S)n2-c2ccccc2)nc2ccccc12 | i
COc1ccc(-c2nnc(SCC(=O)Nc3ccc4c(c3)OCCO4)n2-c2ccc(Cl)cc2)cc1 | i
Cc1csc(NC(=O)CSc2nnc(CN3CCOCC3)n2-c2ccccc2)n1 | i
Cc1ccc(C(=O)CSc2nc(C)nc3sc4c(c23)CCCC4)cc1 | ?
O=C(CCSc1ccc(Cl)cc1)NC1CCCCCC1 | i
